Source: PubChem (ICCB-Longwood Screening Facility, Harvard Medical School)
MgrA-DNA mod = alters Staphylococcus aureus MgrA binding to DNA | fluorescence polarization | inhibition, %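 (about 10 µg/mL by stock and volumes)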 | 84,000 tested, 0.13% active | AID 602314;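 active means above 50% in either of two replicates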;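 further: 0% = protein plus DNA without compound and 100% = DNA alone without protein; higher means less MgrA bound to DNA so lower polarization; one replicate is shown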
S aureus helic = S. aureus DNA helicase inhibition | purified S. aureus helicase, fluorescence unwinding assay; about half of the hits fall short of the stated cut | inhibition, %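 (tested at about 80 µM)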 | 120,000 tested, 0.05% active | AID 485395;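 active means both duplicates at 50% or more, or one of them with a favoured structure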;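 further: 0% = mean of negative control wells and 100% = mean of positive control wells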
Starred values were filed as active, the others as inactive. Some of the compounds tested (hit frequency here may not be typical).

What do the screens show for `c1ccc(N2CCN(CCNc3ncnc4nc[nH]c34)CC2)cc1`?
S aureus helic: 37

Results for Cc1ccc(CNc2ncc(-c3ccc(C)cc3)n2C)cc1 ?
S aureus helic: -11

How did CCCCNC1CCS(=O)(=O)C1 (configuration not stated) do in these assays?
S aureus helic: 11

Results for CCOC(=O)c1cc(=O)c2ccc(OC(=O)c3cccs3)cc2o1 ?
MgrA-DNA mod: -3.0

Results for O=C1N(CN2CCN(Cc3ccccc3)CC2)c2ccccc2C12OCCCO2 ?
S aureus helic: 3

Results for CCOC(=O)C1=C(C)OC(N)=C(C#N)C1c1ccccc1 (configuration not stated) ?
MgrA-DNA mod: -1.7

How did CS(=O)(=O)N1Cc2ccccc2CC1C(=O)OCC(=O)Nc1ccc(OC(F)(F)F)cc1 (configuration not stated) do in these assays?
S aureus helic: 11

Results for CC1CCN(C(=O)C(C)NCc2ccc(F)cc2)CC1 (configuration not stated) ?
MgrA-DNA mod: -34; S aureus helic: 6

Results for N#CCn1c(=O)n(Cc2ccccc2)c(=O)c2cccnc21 ?
MgrA-DNA mod: 3.1; S aureus helic: 12

What do the screens show for `CCOC(=O)c1c(NC(=O)c2cc(-n3cnnc3)ccc2Cl)sc2c1CCCC2`?
MgrA-DNA mod: -0.6; S aureus helic: 10

How did Cc1nc2n(C)c3ccccc3n2c1C(=O)OCCN1CCCCC1 do in these assays?
S aureus helic: 40

What do the screens show for `CC(C)c1ccc(NC(=S)NC2CC3CC2C2C=CCC32)cc1` (configuration not stated)?
MgrA-DNA mod: -1.2

How did O=C(Nc1cccc(-c2nc3ccccc3o2)c1)c1ccc(N2C(=O)C3C4C=CC(C4)C3C2=O)cc1 (configuration not stated) do in these assays?
MgrA-DNA mod: -1.4

What do the screens show for `FC(F)(F)c1cccc(-n2c(Cn3nnc(N4CCOCC4)n3)n[nH]c2=S)c1`?
MgrA-DNA mod: 2.5

What do the screens show for `Cc1ccc(S(=O)(=O)N2CCN(S(=O)(=O)c3ccc(C)cc3)C2)cc1`?
MgrA-DNA mod: 0.8; S aureus helic: 7

For convenience, 2 of the compounds above.
What do the screens show for `c1ccc(N2CCN(CCNc3ncnc4nc[nH]c34)CC2)cc1`?
S aureus helic: 37

Results for Cc1ccc(CNc2ncc(-c3ccc(C)cc3)n2C)cc1 ?
S aureus helic: -11

Later entries.
How did OCCC12CC3CC(C1)CC(CCO)(C3)C2 do in these assays?
S aureus helic: 13

What do the screens show for `COc1cc(C(F)(F)F)cc(C(F)(F)F)c1C(=O)N1CCC(C(=O)c2ccc(Cl)cc2)CC1`?
MgrA-DNA mod: 1.4

What do the screens show for `CN(C(=S)NC(=O)c1ccccc1)c1ccc(OC(F)(F)F)cc1`?
MgrA-DNA mod: 5.1

What do the screens show for `Cc1ccc(CNC(=O)NCc2c(C)nn(C)c2C)cc1`?
S aureus helic: 1

Results for O=C(O)c1cc(Br)ccc1N=Cc1nc(-c2ccc(Cl)cc2)oc1O ?
MgrA-DNA mod: -2.7

Results for CCCCn1c2c(c(=O)n(C)c1=O)C(c1ccc(OC)cc1)C1=C(CCCC1=O)N2 (configuration not stated) ?
S aureus helic: 6

Results for ClCc1nnc(-c2ccccc2)o1 ?
MgrA-DNA mod: -0.7; S aureus helic: -10

What do the screens show for `O=S(=O)(NC1CC1)c1cccs1`?
MgrA-DNA mod: -4.0; S aureus helic: 1

What do the screens show for `C/C(=N\O)C(C)(C)Nc1ccccc1`?
MgrA-DNA mod: -1.2

Results for Cc1ccccc1NC(=O)CSCc1ccccc1 ?
S aureus helic: 5

How did Clc1ccc(COn2nnc3ccccc32)cc1 do in these assays?
MgrA-DNA mod: 1.3; S aureus helic: 25

Results for COc1ccc2oc(C(=O)OCc3cccc(S(=O)(=O)N4CCOCC4)c3)c(C)c2c1 ?
S aureus helic: 7

What do the screens show for `CN(C)S(=O)(=O)c1ccc(C(=O)NCc2ccc3[nH]c4c(c3c2)CCCC4)cc1`?
S aureus helic: 7

How did O=C(Cc1ccccc1Cl)Nc1ccccn1 do in these assays?
MgrA-DNA mod: -1.1; S aureus helic: 22

How did N#CC1=C(N)OC2=C(C(=O)CCC2)C1c1ccccc1C(F)(F)F (configuration not stated) do in these assays?
MgrA-DNA mod: 0.7; S aureus helic: -1

How did CCC1(C)NC(=O)N(/N=C/c2ccc(OCC(=O)N3CC(C)OC(C)C3)c(OC)c2)C1=O (configuration not stated) do in these assays?
S aureus helic: -8

What do the screens show for `CC(C)Cn1c(=N)c(C#N)cc2c(=O)n3ccccc3nc21`?
S aureus helic: 21

Results for COC(=O)c1cc(=O)n(-c2ccccc2C(F)(F)F)[nH]1 ?
S aureus helic: 27

What do the screens show for `c1ccc2c(c1)CN1CCCCN1C2`?
S aureus helic: -20

Results for NC(=O)COC(=O)CSc1ccc(Cl)cc1 ?
S aureus helic: 20

How did COc1ccc(CC(=O)n2c(=O)oc3ccc(C)cc32)cc1 do in these assays?
S aureus helic: -5

How did S=c1sscc1-c1ccccc1 do in these assays?
MgrA-DNA mod: 15; S aureus helic: 1

How did CCCN(CCC)C(=O)c1cc2c(n(-c3ccc(Cl)c(Cl)c3)c1=O)CC(C)(C)CC2=O do in these assays?
MgrA-DNA mod: 0.5; S aureus helic: 0

How did C1=C(c2cccc3ccccc23)N2CCN=C2S1 do in these assays?
S aureus helic: -31

What do the screens show for `CSC(=Nc1ccccc1F)Nc1ccccc1F`?
MgrA-DNA mod: -2.5

What do the screens show for `CC1(C)CC(NC(=O)c2ccc(C(=O)c3ccccc3)o2)CC(C)(C)N1`?
MgrA-DNA mod: 0.9; S aureus helic: -1

What do the screens show for `CN(C)Cc1c(O)ccc2occ(C(=O)c3ccc(F)cc3)c12`?
S aureus helic: -6

Results for c1ccc2c(Oc3ccc4c(c3)OCO4)nncc2c1 ?
S aureus helic: -1

Results for CCOc1cc(CNCc2nnc3ccccn23)ccc1OCC(=O)N1CCCCC1 ?
S aureus helic: -9

Results for O=C(CSc1nnnn1C1CCCC1)NC1CCCc2ccccc21 (configuration not stated) ?
S aureus helic: 2

What do the screens show for `CN(C)CCN(C)C1CCc2ccccc2C1` (configuration not stated)?
MgrA-DNA mod: 0.3; S aureus helic: 4

How did O=C(N/C(=C/c1ccc2c(c1)OCO2)C(=O)N1CCCC1=O)c1ccco1 do in these assays?
S aureus helic: 3

How did COC(=O)c1ccccc1NC(=O)CC1Nc2ccccc2NC1=O (configuration not stated) do in these assays?
MgrA-DNA mod: 3.1; S aureus helic: 0

Results for Cc1oc2c(Cl)c(Cl)c(O)c(CN(C)C)c2c1C(=O)c1ccc(Cl)cc1 ?
MgrA-DNA mod: -1.0

Results for Cc1ccccc1-n1nc(C)c(CC(=O)O)c1C ?
MgrA-DNA mod: 2.4; S aureus helic: -9

What do the screens show for `N#Cc1c(=O)n(O)c2ccccc2[n+]1[O-]`?
MgrA-DNA mod: 49*

What do the screens show for `CC(C)CC(=O)NC(=S)N1CCCCCC1`?
MgrA-DNA mod: -1.1; S aureus helic: 10

Results for CCOC(=O)C1CCN(S(=O)(=O)c2ccc3c(c2)SCC(=O)N3)CC1 ?
MgrA-DNA mod: -1.1; S aureus helic: 0

How did CCOc1ccc(/C=N/n2c(C)nc3ccccc3c2=O)cc1 do in these assays?
MgrA-DNA mod: 2.0; S aureus helic: 9

Results for O=C1c2ccccc2S(=O)(=O)N1CC(O)CN1c2ccccc2Sc2ccccc21 (configuration not stated) ?
S aureus helic: 8

How did CSc1nc2ccc3nc(NC(=O)c4ccccc4Cl)sc3c2s1 do in these assays?
MgrA-DNA mod: 2.5; S aureus helic: 3

How did Cc1cccc(-c2nnc(CSc3nnc(C4CC4)n3-c3ccccc3)o2)c1 do in these assays?
S aureus helic: -3

What do the screens show for `Cc1ccc(/C=C2\SC(=O)N(CCN3CN(CCO)c4nc5ccccc5n4C3)C2=O)cc1`?
S aureus helic: -4

How did Cc1nn(C)cc1CNC(=O)CCC(=O)O do in these assays?
S aureus helic: 10

How did O=C(NC(=S)Nn1cnnc1)c1ccc(Cl)c(S(=O)(=O)N2CCCCCC2)c1 do in these assays?
S aureus helic: -11

Arranged by length of the SMILES (largest number first): some entries from above.
How did O=C(Nc1cccc(-c2nc3ccccc3o2)c1)c1ccc(N2C(=O)C3C4C=CC(C4)C3C2=O)cc1 (configuration not stated) do in these assays?
MgrA-DNA mod: -1.4

Results for CCOc1cc(CNCc2nnc3ccccn23)ccc1OCC(=O)N1CCCCC1 ?
S aureus helic: -9

Results for Cc1ccccc1-n1nc(C)c(CC(=O)O)c1C ?
MgrA-DNA mod: 2.4; S aureus helic: -9

(cont.)
What do the screens show for `C=CCn1c(NCc2ccccc2O)nc2ccccc21`?
S aureus helic: 9

Results for CCCCN1C(=O)c2ccc(C(=O)OC3CCCCC3=O)cc2C1=O (configuration not stated) ?
S aureus helic: -6

How did CC1=CC(OC(=O)Nc2ccc(Cl)cc2)CC(C)(C)C1 (configuration not stated) do in these assays?
S aureus helic: -5

Results for N/C(=N/c1nc2ccccc2o1)NC(=O)Nc1ccc(Cl)c(Cl)c1 ?
MgrA-DNA mod: 1.0; S aureus helic: 9

Results for CCOC(=O)CSc1nnc(Cc2ccc(OCC)cc2)n1C ?
MgrA-DNA mod: 1.4; S aureus helic: 19

Results for CC(C)NC(=O)Cn1c(SCC(=O)N2CCc3ccccc32)nc2ccccc21 ?
MgrA-DNA mod: -1.4; S aureus helic: 3

Results for CCCCn1c(C(C)NC(=O)CC)nc2ccccc21 (configuration not stated) ?
S aureus helic: 0

Results for COc1ccccc1C(=O)ON1C(=O)c2ccccc2C1=O ?
MgrA-DNA mod: 8.2; S aureus helic: 1

Results for COc1ccccc1/C=C/C1=NC(=C\c2ccc3c(c2)OCO3)/C(=O)O1 ?
MgrA-DNA mod: 0.6; S aureus helic: -13

What do the screens show for `O=S(=O)(c1ccccc1)N1CCN(c2nnnn2-c2ccccc2)CC1`?
S aureus helic: 9

What do the screens show for `CC(C)(C)N(Cc1ccccc1)C(=O)COc1ccccc1`?
MgrA-DNA mod: 0.1; S aureus helic: 11

How did NC(=O)c1ccccc1Br do in these assays?
MgrA-DNA mod: -1.8

What do the screens show for `COc1c(NC(C)=O)oc2ccccc12`?
MgrA-DNA mod: -1.5; S aureus helic: -1

How did CCOC(=O)c1sc(NC(=O)CC)c(C(=O)OCC)c1C do in these assays?
MgrA-DNA mod: -7.8; S aureus helic: -1

Results for CCc1ccc(-c2ccc(C#N)cc2)nc1 ?
MgrA-DNA mod: -2.3; S aureus helic: 12

What do the screens show for `CCCc1oc2cc(OCC(=O)OC)c(CC)cc2c(=O)c1-c1ccc2c(c1)OCCCO2`?
MgrA-DNA mod: 1.3

How did Cc1ccc(C)c(Cc2c(C)nc3c(C(=O)NC4CC4)cnn3c2C)c1 do in these assays?
MgrA-DNA mod: 0.7; S aureus helic: -3

How did O=C(Nc1ccccc1)NC1CCCCNC1=O (configuration not stated) do in these assays?
MgrA-DNA mod: -1.5

How did CCOC(=O)c1cn(C)c(=O)c2ccccc12 do in these assays?
MgrA-DNA mod: -0.7; S aureus helic: 1

Results for CC1=CC2=NC(=O)/C(=C\c3ccco3)C(=N)N2O1 ?
MgrA-DNA mod: 3.0; S aureus helic: 20

Results for CC1(C)CC(=NO)CC(C)(C)[NH+]1[O-] (configuration not stated) ?
S aureus helic: 21

How did O=C(O)CCN(Cc1ccccc1)S(=O)(=O)c1cccc(C(F)(F)F)c1 do in these assays?
S aureus helic: 10

What do the screens show for `Cc1cc(NC(=O)OCC(F)(F)F)no1`?
S aureus helic: -2

Results for CCSc1nnc2c(n1)OC(c1cccs1)Nc1ccccc1-2 (configuration not stated) ?
MgrA-DNA mod: -0.4

What do the screens show for `O=c1cc2[nH][nH]c(=S)n2c(=O)[nH]1`?
MgrA-DNA mod: 9.4; S aureus helic: -1

What do the screens show for `CNc1nnc(C(F)(F)F)s1`?
MgrA-DNA mod: -0.9

Results for CC1CC(=O)N(c2ccccc2)N1 (configuration not stated) ?
MgrA-DNA mod: -3.4; S aureus helic: 14

Results for CCOC(=O)c1csc(-c2sc(SC)c3c2CCCC3=O)n1 ?
MgrA-DNA mod: -1.7

Results for COc1ccc(OC)c(NC(=O)CCNS(=O)(=O)c2cccc3nonc23)c1 ?
S aureus helic: 34

Results for CCn1c(=NC(=O)c2ccc(S(=O)(=O)N(C)C)cc2)sc2ccccc21 ?
MgrA-DNA mod: -0.3; S aureus helic: 3

Retrieved by compound from above, 5 records:
How did COc1ccc(CC(=O)n2c(=O)oc3ccc(C)cc32)cc1 do in these assays?
S aureus helic: -5

What do the screens show for `O=c1cc2[nH][nH]c(=S)n2c(=O)[nH]1`?
MgrA-DNA mod: 9.4; S aureus helic: -1

What do the screens show for `CNc1nnc(C(F)(F)F)s1`?
MgrA-DNA mod: -0.9

What do the screens show for `CCOC(=O)c1c(NC(=O)c2cc(-n3cnnc3)ccc2Cl)sc2c1CCCC2`?
MgrA-DNA mod: -0.6; S aureus helic: 10

What do the screens show for `Cc1ccc(/C=C2\SC(=O)N(CCN3CN(CCO)c4nc5ccccc5n4C3)C2=O)cc1`?
S aureus helic: -4

More records.
How did c1cc(-c2ccsc2)[nH]n1 do in these assays?
MgrA-DNA mod: -2.9

What do the screens show for `COc1ccc(/C=C/C(=O)N2CCN(C(c3ccccc3)c3ccccc3)CC2)cc1OC`?
MgrA-DNA mod: -0.8; S aureus helic: -20

What do the screens show for `O=C(Nc1c(C(=O)N2CCOCC2)cnn1-c1ccccc1)c1ccccc1F`?
MgrA-DNA mod: -0.4; S aureus helic: 8

Results for COc1ccc(CCC(O)C2(O)CCCCC2)cc1 (configuration not stated) ?
MgrA-DNA mod: 3.3; S aureus helic: 15

What do the screens show for `Clc1cc2c(c3ncccc13)OCN(CCc1ccccc1)C2`?
S aureus helic: 14

Results for Cc1onc(-c2ccccc2Cl)c1C(=O)N(Cc1ccc(N(C)C)cc1)C(C)C ?
MgrA-DNA mod: -0.9

How did Cc1ccccc1OCCn1cnc2c(N)ncnc21 do in these assays?
S aureus helic: -18

What do the screens show for `C=CCN(CC=C)S(=O)(=O)c1ccc(C(=O)N2CC(C)CC(C)C2)cc1` (configuration not stated)?
S aureus helic: 7

Results for Clc1nncc2ccccc12 ?
S aureus helic: -20
